Screening results (PubChem BioAssay)
Ecoli rRNA inh: selective bacterial rRNA inhibition in E. coli. AID 720706. 350,000 compounds, 1.6% hits. GFP signal change (wild-type ribosome), % (concentration not given with the values). E. coli WT GFP vs humanized-ribosome RFP mutants, fluorescence, 24 h; stronger effect = lower value; DMSO median 0, no signal -100;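 active = significant combined selectivity score with lowered wild-type GFP, culture density cut under 30%, mutant RFP and density less affected; inactive = any of these conditions unmet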; also: one replicate is shown; some compounds called inactive have numbers as strong as hits
Ecoli rRNA inh OD600: second read-out of Ecoli rRNA inh, no call of its own (marks repeat the call); OD600 change, %; measured here: OD600 growth;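 optical density of the mix in the first replicate; 0 = DMSO median and -100 = no signal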
Ecoli rRNA inh RFP: further read-out of Ecoli rRNA inh, marked with its call; RFP signal change, %; measured here: RFP humanized mutant strains;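 first replicate; 0 = DMSO median and -100 = no signal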
Numbers without * were called inactive; & = joins results of further samples.

Ecoli rRNA inh	Ecoli rRNA inh OD600	Ecoli rRNA inh RFP	compound
3	11	-0.2	COCC(=O)N1C[C@@H]2[C@H](c3ccccc31)[C@H](CO)N2C(=O)C1CCCCC1
5	13	-1.7	CN1C(=O)c2cc(NC(=O)Nc3ccccc3Cl)ccc2OC[C@H]2O[C@H](CC(=O)O)CC[C@@H]21
-3	2	1.2	COc1ccc(NC(=O)Nc2ccc3c(c2)[C@H]2C[C@H](CC(=O)N4CCOCC4)O[C@H](CO)[C@H]2O3)cc1
9	5	3.0	CN(C(=O)[C@@H](Cc1ccccc1)NC(=O)[C@H]1O[C@@H](n2cnc3c(=O)[nH]c(N)nc32)[C@H](O)[C@@H]1O)C1CCCCC1
6	9	-4.4	CCC(=O)N1CC2(CN(C(=O)Nc3c(C)noc3C)C2)c2c([nH]c3cc(OC)ccc23)[C@@H]1CO
-2	3	1.2	O=C(NCc1ccccc1)C(c1ccccc1)n1c(C2CC2)nc2ccccc21 (configuration not stated)
-30*	-6.9*	9.6*	C=CCNC(=S)N(C)[C@H]1C[C@H]2c3cc(-c4ccccc4C)ccc3CCN2C[C@H]1[C@H](C)O
-2	-4	-0.2	CN(C)CC(=O)N1[C@@H](CO)[C@@H]2c3ccccc3N(C(=O)Cc3ccccc3)C[C@@H]21
5	0	-0.5	CCC(=O)Nc1ccc2c(c1)C(=O)N(C)C[C@H](OC)[C@H](C)CN(C(=O)CN1CCOCC1)[C@@H](C)CO2
-2	-1	-2.5	C[C@H](CO)N1C[C@H](C)[C@@H](CN(C)Cc2cccc(F)c2)Oc2ncc(C#CC(C)(C)O)cc2C1=O
18	2	0.0	COc1ccc2c(=O)c3c(=O)n(CCc4ccccc4)c(C)nc3oc2c1
-2	-5	-0.3	CN(Cc1ccco1)C(=O)[C@@H](Cc1ccccc1)NC(=O)[C@H]1O[C@@H](n2ccc(=O)[nH]c2=O)[C@H](O)[C@@H]1O
-4	-17	4.7	CO[C@@H]1CN(C)C(=O)c2ccc(NC(=O)c3nc4ccccc4s3)cc2OC[C@H](C)N(Cc2cccnc2)C[C@H]1C
0	-17	-1.5	C[C@H](CO)N1C[C@H](C)[C@@H](CN(C)C(=O)C2CC2)Oc2cc(C3=CCCC3)ccc2S1(=O)=O
7	29	2.4	CC(C)c1[nH]nc2c1C(c1ccccc1)N(Cc1ccccc1)C2=O (configuration not stated)
-23	-56	8.7	CCCC#Cc1ccc2c(c1)O[C@@H](CN(C)CC1CCOCC1)[C@H](C)CN([C@@H](C)CO)S2(=O)=O

Quoted at random: 6 records from the list, in no set order.
Ecoli rRNA inh	Ecoli rRNA inh OD600	Ecoli rRNA inh RFP	compound
0	-17	-1.5	C[C@H](CO)N1C[C@H](C)[C@@H](CN(C)C(=O)C2CC2)Oc2cc(C3=CCCC3)ccc2S1(=O)=O
18	2	0.0	COc1ccc2c(=O)c3c(=O)n(CCc4ccccc4)c(C)nc3oc2c1
-23	-56	8.7	CCCC#Cc1ccc2c(c1)O[C@@H](CN(C)CC1CCOCC1)[C@H](C)CN([C@@H](C)CO)S2(=O)=O
5	0	-0.5	CCC(=O)Nc1ccc2c(c1)C(=O)N(C)C[C@H](OC)[C@H](C)CN(C(=O)CN1CCOCC1)[C@@H](C)CO2
-4	-17	4.7	CO[C@@H]1CN(C)C(=O)c2ccc(NC(=O)c3nc4ccccc4s3)cc2OC[C@H](C)N(Cc2cccnc2)C[C@H]1C
-2	-5	-0.3	CN(Cc1ccco1)C(=O)[C@@H](Cc1ccccc1)NC(=O)[C@H]1O[C@@H](n2ccc(=O)[nH]c2=O)[C@H](O)[C@@H]1O

(continued)
Ecoli rRNA inh	Ecoli rRNA inh OD600	Ecoli rRNA inh RFP	compound
5	8	-0.5	C[C@@H]1CN([C@H](C)CO)S(=O)(=O)c2ccc(C#CCN(C)C)cc2O[C@H]1CN(C)C(=O)C1CC1
2	2	2.9	CO[C@@H]1CN(C)C(=O)c2ccc(NC(C)=O)cc2OC[C@H](C)N(C(=O)c2ccc(F)cc2)C[C@H]1C
-3	-5	-1.4	C[C@H](CO)N1C[C@H](C)[C@H](CN(C)S(C)(=O)=O)Oc2ccc(NS(=O)(=O)c3ccc(F)cc3)cc2C1=O
-1	1	3.4	C[C@H]1CN(C)C(=O)c2cccc(N(S(C)(=O)=O)S(C)(=O)=O)c2O[C@H]1CN(C)C(=O)OC(C)(C)C
-4	-20	20	O=C1N[C@@H](c2ccccc2)COCc2cn(nn2)CC[C@@H]1Cc1ccc(-c2ccccc2)cc1
-3	-15	4.4	CC(C)COC(=O)N(C)C[C@H]1OCc2ccccc2-c2c(n(C)c3ccccc23)C(=O)N([C@H](C)CO)C[C@H]1C
0	4	-0.8	CC(=O)Nc1ccc2c(c1)CC(=O)N(C)C[C@@H](C)[C@H](CN(C)C)O2
1	0	-1.8	CO[C@@H]1CN(C)C(=O)c2ccc(NC(=O)C3CC3)cc2OC[C@@H](C)N(Cc2cncnc2)C[C@@H]1C
1	2	1.1	C[C@@H]1CN([C@H](C)CO)C(=O)c2cc(NC(=O)Nc3ccc(C(F)(F)F)cc3)ccc2O[C@@H](C)CCCCO[C@H]1CN(C)C(=O)Nc1ccc(C(F)(F)F)cc1
-1	-2	-1.8	O=C(/C=C(\Nc1ccc(Cl)c(Cl)c1)c1ccccc1)c1ccccc1
1	2	-1.6	C[C@H](CO)N1C[C@H](C)[C@@H](CN(C)S(=O)(=O)c2ccc(F)cc2)OCCCC[C@H](C)Oc2ccc(NC(=O)Nc3ccc(F)cc3)cc2C1=O
-3&-1	-3&5	0.0&-2.1	CC(=O)N1C[C@@H]2C(c3ccc(Br)cc3)[C@H](C1)N2C(=O)NC(C)C (some centres not stated)
12	22	-4.8	COc1cc2c(c(OC)c1OC)[C@@]1(c3ccccc3)CCCCC[C@H]1[C@@H]2NC(=O)C(F)(F)F
-6	-6	-1.2	COc1ccc([C@@H]2C/C=C\C[C@H](c3ccc4c(c3)OCO4)NC(=O)CCC(=O)N2)c(OC)c1
4	4	-1.3	CCCNC(=O)C[C@@H]1C[C@H]2c3cc(NC(=O)Nc4ccccc4)ccc3O[C@H]2[C@@H](CO)O1
4	7	-0.1	C[C@H]1CN([C@@H](C)CO)C(=O)c2cc(-c3ccncc3)cnc2O[C@@H]1CN(C)C(=O)Cc1cccnc1
0	2	0.4	COc1cccc(-c2ccc(C3[C@@H]4CN(C(=O)Cc5ccncc5)C[C@H]3N4)cc2)c1 (some centres not stated)
2	-10	1.9	Cc1ccc(S(=O)(=O)Nc2ccc3c(c2)C(=O)N([C@H](C)CO)C[C@H](C)[C@H](CN(C)Cc2ccccc2)OCCCC[C@@H](C)O3)cc1
-16	-28	2.7	COc1cccc(-c2ccc3c(c2)[C@@H]2[C@@H](CCN2C(=O)C2CCC2)[C@@H](CO)N3)c1
7	5	-1.5	COc1ccc(C2=Nc3ccccc3N(C(=O)c3cnccn3)C2C(=O)NC2CCCC2)cc1 (configuration not stated)
-1	1	-1.2	COc1ccc(S(=O)(=O)Nc2ccc3c(c2)C(=O)N([C@@H](C)CO)C[C@H](C)[C@@H](CN(C)S(=O)(=O)c2ccc(OC)cc2)OCCCC[C@@H](C)O3)cc1
-2	3	-2.2	COc1ccc(NC(=O)Nc2ccc3c(c2)C(=O)N([C@H](C)CO)C[C@H](C)[C@@H](CN(C)S(=O)(=O)c2ccc(OC)cc2)OCCCC[C@H](C)O3)cc1
2	5	-1.4	O=C(C[C@@H]1CC[C@H]2[C@@H](COC[C@H](O)CN2CCC(F)(F)F)O1)NCC1CCCCC1
-7	-21	3.1	C[C@H](CO)N1C[C@H](C)[C@@H](CN(C)C(=O)C2CC2)Oc2cc(-c3cccc(F)c3)ccc2S1(=O)=O
5	-22	13	COc1ccc2c3c([nH]c2c1)[C@@H](CO)N(C(=O)C1CCC1)CC31CCN(Cc2cccc(F)c2)CC1
-6	-8	4.3	CO[C@@H]1CN(C)C(=O)c2ccc(NC(=O)C3CC3)cc2OC[C@H](C)N(Cc2cccc(F)c2)C[C@H]1C
-2	-1	0.4	COC(=O)C[C@@H]1CC[C@H]2[C@H](COc3ccc(NC(=O)Cc4cccs4)cc3C(=O)N2C)O1
-7	4	15	Clc1ccc(CN2CCN(c3ncc(Cc4ccccc4)cn3)CC2)c(Cl)c1
-6	-5	-3.4	Cc1ccc(S(=O)(=O)N(C)C[C@H]2OCc3cnnn3CCCC(=O)N([C@H](C)CO)C[C@@H]2C)cc1
-4	2	-0.8	COC(=O)C1=C(C)N(Cc2ccc(F)cc2)C(=S)NC1c1ccc(Cl)cc1 (configuration not stated)
1	10	-1.0	C[C@@H]1CN([C@@H](C)CO)C(=O)c2cc(NC(=O)Nc3ccc(F)cc3)ccc2O[C@@H](C)CCCCO[C@@H]1CN(C)C
-3	5	-0.6	C=CC[C@H](CC(=O)NCCO)C(=O)N[C@H](COC(=O)[C@@H](CC=C)Cc1ccc(F)cc1)C(C)(C)C
1	1	-0.3	COCCNC(=O)C[C@H]1CC[C@H]2[C@@H](COC[C@@H](O)CN2S(=O)(=O)c2ccccc2F)O1
2	3	-2.6	O=C(Nc1ccccc1)Nc1ccc2c(c1)[C@@H]1C[C@H](CC(=O)N3CCOCC3)O[C@@H](CO)[C@@H]1O2
-25	-29	3.1	CC(C)NC(=O)N1[C@@H]2CN(C(=O)Nc3ccc(Cl)cc3)c3ccccc3[C@@H]2[C@@H]1CO
-4	-16	7.6	Cc1ccc(-c2ccc([C@H]3[C@@H](CO)N4CCCCN(C(=O)Nc5cccc(F)c5)C[C@@H]34)cc2)cc1
0	3	2.2	C[C@@H]1CCCCO[C@@H](CN(C)S(=O)(=O)c2ccc(F)cc2)[C@H](C)CN([C@H](C)CO)C(=O)c2cc(NS(=O)(=O)c3ccc(F)cc3)ccc2O1
9	9	3.1	Nc1ccn([C@@H]2O[C@H](C(=O)N[C@H](Cc3ccccc3)C(=O)N3CCN(C(=O)N4CCOCC4)CC3)[C@@H](O)[C@H]2O)c(=O)n1
6	2	3.2	CCC(=O)N1[C@H](CO)[C@H](c2ccc(C#CC3CCCC3)cc2)[C@@H]1CNC(C)C
-1	5	-4.0	COc1ccc2c3c([nH]c2c1)[C@@H](CO)N(C(C)=O)CC31CN(C(=O)c2cccc(F)c2)C1
-3	-3	0.1	CC(C)C#Cc1ccc2c(c1)O[C@@H](CN(C)C(=O)NC(C)C)[C@@H](C)CN([C@@H](C)CO)S2(=O)=O
-12	-35	11	COc1ccc(CN(C)C[C@@H]2Oc3ccc(NC(=O)Nc4ccc(C(F)(F)F)cc4)cc3CC(=O)N([C@H](C)CO)C[C@@H]2C)cc1
-2	4	0.5	Cc1noc(C)c1S(=O)(=O)Nc1ccc2c(c1)C(=O)N([C@@H](C)CO)C[C@@H](C)[C@H](CN(C)S(=O)(=O)c1cccs1)OCCCC[C@@H](C)O2
2	-1	3.6	C[C@H](CO)N1C[C@H](C)[C@@H](CN(C)Cc2ccc(F)cc2)Oc2ncc(-c3ccc(F)cc3)cc2C1=O
1	4	-2.4	C[C@@H]1CCCCO[C@@H](CN(C)S(=O)(=O)c2cn(C)cn2)[C@@H](C)CN([C@@H](C)CO)C(=O)c2cc(NC(=O)Nc3ccc(C(F)(F)F)cc3)ccc2O1
0	0	-0.7	COc1ccc(S(=O)(=O)N(C)C[C@@H]2Oc3ccc(NC(=O)Nc4cccc5ccccc45)cc3C(=O)N([C@@H](C)CO)C[C@H]2C)cc1
6	3	-1.7	Cc1noc(C)c1NC(=O)Nc1ccc2c(c1)CC(=O)N([C@H](C)CO)C[C@H](C)[C@@H](CN(C)S(=O)(=O)c1c(C)noc1C)O2
3	13	-3.5	COCCNC(=O)C[C@H]1C[C@@H]2c3cc(NC(=O)Nc4ccc(F)cc4)ccc3O[C@@H]2[C@H](CO)O1
1	13	2.1	C[C@@H]1CCCCO[C@H](CN(C)C(=O)c2ccncc2)[C@@H](C)CN([C@H](C)CO)C(=O)c2cc(NC(=O)NC3CCCCC3)ccc2O1
-4	-1	0.9	CCCNC(=O)NC[C@@H]1[C@H](c2ccc(C3=CCCC3)cc2)[C@@H](CO)N1C(C)=O
-6	-1	6.9	C[C@H](CO)N1C[C@H](C)[C@H](CN(C)C(=O)Cc2ccccc2)OCc2ccccc2-c2c(n(C)c3ccccc23)C1=O
6	-2	0.0	CNC[C@@H]1Oc2ncc(C#CC3CCCCC3)cc2C(=O)N([C@@H](C)CO)C[C@@H]1C
-17	-27	-2.2	O=S(=O)(c1ccc(F)cc1)N1CC[C@@H]2[C@H](CO)Nc3ccc(Br)cc3[C@@H]21
4	11	-3.5	COc1ccc2c3c([nH]c2c1)[C@H](CO)N(C)CC31CN(C(=O)Nc2c(C)noc2C)C1
-1	-1	0.6	CO[C@@H]1CN(C)C(=O)c2cc(NC(=O)C3CC3)ccc2OC[C@@H](C)N(C(=O)c2ccccn2)C[C@H]1C
-8	-3	3.8	C[C@H](CO)N1C[C@H](C)[C@H](CN(C)C(=O)Nc2cccc3ccccc23)OCCCC[C@H](C)Oc2ccc(N(C)C)cc2C1=O
-2	0	4.3	CCCc1ccc(-c2cc(NC(=O)Cc3c[nH]c4ccccc34)ccc2Nc2cccnc2)cc1
0	-28	32	COc1ccc(CN(C)C[C@H]2OCCCC[C@H](C)Oc3ccc(NC(=O)Nc4ccccc4)cc3C(=O)N([C@@H](C)CO)C[C@@H]2C)cc1

As entered above.
For Ecoli rRNA inh OD600, C[C@H](CO)N1C[C@H](C)[C@H](CN(C)C(=O)Nc2cccc3ccccc23)OCCCC[C@H](C)Oc2ccc(N(C)C)cc2C1=O has -3
For Ecoli rRNA inh RFP, CNC[C@@H]1Oc2ncc(C#CC3CCCCC3)cc2C(=O)N([C@@H](C)CO)C[C@@H]1C has 0.0

Some of the compounds tested; the hit share may differ from the screen's.
